# Ecoli rRNA inh – inhibits bacterial ribosomal RNA function over humanized ribosomes; GFP signal change (wild-type ribosome), % (test concentration not listed); AID 720706; actives 1.6% (n = 350,000); E. coli WT GFP vs humanized-ribosome RFP mutants, fluorescence, 24 h; hits give low values; DMSO median 0, no signal -100;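 active = significant combined selectivity score with lowered wild-type GFP, culture density cut under 30%, mutant RFP and density less affected; inactive = any of these conditions unmet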; also: one replicate is shown; some compounds called inactive have numbers as strong as hits
# MLL AF4-AF9 inh – inhibitors of human MLL-AF4/AF9 interaction; AID 651704; AlphaScreen, biotin-AF4 peptide binding to FLAG-AF9; actives 0.47% (n = 350,000); inhibition, % at 10 µM; P42568;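 active = every replicate reaching a set inhibition limit, whatever the replicate mean, cut at about 25% in these data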;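 also: 0% = plate neutral control median and 100% = total signal loss; the record names both 10 and 1 µM as test concentration; the first replicate is given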
# Target sequence (P42568 whole entry, looked up): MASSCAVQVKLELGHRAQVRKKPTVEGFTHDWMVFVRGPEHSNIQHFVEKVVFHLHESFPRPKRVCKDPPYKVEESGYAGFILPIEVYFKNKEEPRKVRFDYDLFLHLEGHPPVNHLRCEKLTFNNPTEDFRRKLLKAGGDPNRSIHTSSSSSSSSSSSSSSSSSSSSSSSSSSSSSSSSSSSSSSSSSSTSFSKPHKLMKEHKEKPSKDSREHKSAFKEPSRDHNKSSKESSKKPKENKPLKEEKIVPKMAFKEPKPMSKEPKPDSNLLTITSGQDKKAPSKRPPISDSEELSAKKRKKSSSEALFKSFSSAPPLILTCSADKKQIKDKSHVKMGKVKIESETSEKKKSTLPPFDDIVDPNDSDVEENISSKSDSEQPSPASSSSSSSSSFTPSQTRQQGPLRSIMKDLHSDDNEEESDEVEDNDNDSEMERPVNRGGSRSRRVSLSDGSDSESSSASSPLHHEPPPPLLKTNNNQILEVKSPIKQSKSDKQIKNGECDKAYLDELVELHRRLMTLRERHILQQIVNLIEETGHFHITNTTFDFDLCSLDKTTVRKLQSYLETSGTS
# FGF22 binding – binders of recombinant human FGF22 by thermal shift. Q9HCT0. actives 1.5% (n = 340,000). SYPRO orange fluorescence; percent of sucrose octasulfate shift, DMSO zero. calls only at 9.99 µM;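 active = melting point raised past a set limit in the mean and every replicate; three in four hits are not shown here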
# Target sequence (Q9HCT0 whole entry, looked up): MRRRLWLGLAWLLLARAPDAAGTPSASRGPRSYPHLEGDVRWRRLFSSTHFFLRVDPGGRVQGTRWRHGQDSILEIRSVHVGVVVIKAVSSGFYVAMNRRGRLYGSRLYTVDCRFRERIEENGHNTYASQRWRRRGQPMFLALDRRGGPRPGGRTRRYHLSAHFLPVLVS
# Ecoli rRNA inh OD600 – second read-out of Ecoli rRNA inh, no call of its own (marks repeat the call); OD600 change, %; measured here: OD600 growth;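 optical density of the mix in the first replicate; 0 = DMSO median and -100 = no signal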
# Ecoli rRNA inh RFP – second read-out of Ecoli rRNA inh, no call of its own (marks repeat the call); RFP signal change, %; measured here: RFP humanized mutant strains;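 first replicate; 0 = DMSO median and -100 = no signal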
# * = called active by the depositor; i = inactive; & = joins results of further samples. Some of the compounds tested; count on the stated rates, not on these rows.
cpd	molecule	MLL AF4-AF9 inh	FGF22 binding	Ecoli rRNA inh RFP
1	C[C@@H]1CN([C@@H](C)CO)C(=O)Cc2cc(NC(=O)CCN3CCOCC3)ccc2O[C@@H]1CN(C)S(=O)(=O)c1ccc(Cl)cc1	0.1	i	-2.4
2	CN1C(=O)c2cc(NC(=O)Cc3cccs3)ccc2OC[C@@H]2O[C@H](CC(=O)N[C@H]3CCN(Cc4ccccc4)C3)CC[C@@H]21	3.2	i	-2.8
3	C[C@H](CO)N1C[C@H](C)[C@H](CN(C)C)Oc2ccc(NC(=O)c3ccncc3)cc2CC1=O	-1.3	i	0.4
4	Cc1ccc(S(=O)(=O)Nc2ccc3c(c2)CC(=O)N([C@H](C)CO)C[C@H](C)[C@H](CN(C)S(=O)(=O)c2c(C)noc2C)O3)cc1	1.8	i	0.4
5	N#Cc1ccc(-c2ccc([C@H]3[C@H]4CN(S(=O)(=O)c5ccccc5)CCCCN4[C@H]3CO)cc2)cc1	-1.9	i	0.7
6	O=C(C[C@@H]1CC[C@@H]2[C@H](COC[C@@H](O)CN2CCC(F)(F)F)O1)NCc1ccc(Oc2ccccc2)cc1	2.9	i	12
7	C[C@@H]1CN([C@H](C)CO)C(=O)c2cc(NS(C)(=O)=O)ccc2O[C@H]1CN(C)Cc1ccc(-c2ccccc2)cc1	4.2	i	-0.1
8	O=C(NNC(=O)c1ccc2ccccc2c1)c1cccc(Cl)c1	1.3	i	-9.5
9	COc1ccc(C#Cc2cnc3c(c2)C(=O)N([C@H](C)CO)C[C@@H](C)[C@H](CN(C)C(C)=O)O3)cc1	-3.5	i	-3.7
10	CO[C@@H]1CN(C)C(=O)c2cc(NC(C)=O)ccc2OC[C@@H](C)N(S(C)(=O)=O)C[C@@H]1C	-6.2	i	0.7
11	C[C@@H]1CN([C@H](C)CO)C(=O)c2cc(C3=CCCC3)cnc2O[C@@H]1CN(C)Cc1ccccc1F	-0.3	i	2.7
12	CCCNC(=O)c1cc(C2CCCCN2C(=O)c2ccc(C(C)C)cc2)on1 (configuration not stated)	-1.4	i	-0.2

cpd	Ecoli rRNA inh OD600	Ecoli rRNA inh
1	7	2
2	5	-2
3	14	3
4	3	0
5	-2	2
6	-42	-15
7	-18	-6
8	2	-2
9	-1	-1
10	6	6
11	-2	-2
12	-1	-4

# Other results
cpd	molecule	MLL AF4-AF9 inh	FGF22 binding	Ecoli rRNA inh RFP
13	Cc1ccc(NC(=C(C#N)C#N)c2ccccc2)cc1	1.9	i	1.1
14	CC(C)NC(=O)N1[C@@H]2CN(C(=O)c3ccccc3F)c3ccccc3[C@@H]2[C@@H]1CO	0.2	i	-0.2
15	C[C@H]1CN([C@@H](C)CO)C(=O)CCCn2cc(nn2)CO[C@@H]1CN(C)C(=O)c1ccccc1	3.7&0.4	i	-4.6&0.3
16	CO[C@H]1CN(C)C(=O)c2cc(NS(=O)(=O)c3cccc(F)c3)ccc2OC[C@H](C)N(C(=O)Cc2cccnc2)C[C@@H]1C	0.8	i	0.1
17	C[C@H]1CCCCO[C@H](CN(C)C(=O)Nc2ccc(C(F)(F)F)cc2)[C@@H](C)CN([C@@H](C)CO)C(=O)c2cc(NC(=O)Nc3ccccc3)ccc2O1	-1.0	i	2.8
18	C[C@H](CO)N1C[C@H](C)[C@H](CN(C)CC2CC2)Oc2c(NS(C)(=O)=O)cccc2C1=O	-8.7	i	-2.1
19	COc1ccc(C#Cc2ccc([C@H]3[C@@H](CO)N4CCCCN(C(=O)Nc5ccccc5F)C[C@H]34)cc2)cc1	2.9	i	-2.2
20	CO[C@H]1CN(C)C(=O)c2cc(NC(=O)Cc3ccccc3)ccc2OC[C@H](C)N(C(C)=O)C[C@@H]1C	-1.8	i	-0.6
21	O=C(Nc1cccc(Cl)c1)N1C[C@@H]2[C@H](c3ccccc31)[C@@H](CO)N2CC1CCOCC1	1.6	i	-7.1
22	Cc1ccc(S(=O)(=O)Nc2ccc3c(c2)C(=O)N(C)[C@H]2CC[C@@H](CC(=O)NCCc4ccncc4)O[C@@H]2CO3)cc1	-0.2	i	-1.5
23	Cc1noc(C)c1NC(=O)NCC[C@@H]1CC[C@H](NC(=O)Nc2cccc(Cl)c2)[C@H](CO)O1	3.9	i	1.7
24	C[C@@H]1CN([C@H](C)CO)C(=O)c2cc(NC(=O)C3CCCCC3)ccc2O[C@@H](C)CCCCO[C@H]1CN(C)Cc1ccccc1	3.8	i	-1.2

cpd	Ecoli rRNA inh OD600	Ecoli rRNA inh
13	-19	3
14	2	4
15	0&7	-1&8
16	-3	-5
17	4	4
18	-3	-1
19	-73	-54
20	1	1
21	-48	-36
22	7	0
23	6	2
24	-3	2

# Following part.
cpd	molecule	MLL AF4-AF9 inh	FGF22 binding	Ecoli rRNA inh RFP
25	C[C@@H]1CN([C@H](C)CO)C(=O)c2ccccc2-c2ccccc2CO[C@@H]1CN(C)Cc1cccc(C(F)(F)F)c1	0.6	i	1.9
26	C[C@H]1CN([C@@H](C)CO)C(=O)Cc2cc(NC(=O)NC3CCCCC3)ccc2O[C@@H]1CN(C)Cc1ccc(Oc2ccccc2)cc1	-1.1	i	-0.9
27	C[C@H]1CN([C@@H](C)CO)C(=O)c2cccc(N(C)C)c2O[C@@H]1CN(C)C(=O)Nc1ccc(F)cc1	-4.1	i	-1.3
28	FC(F)(F)c1ccccc1Cc1c(-c2cccc(Cl)c2)nc2ccc(Br)cn12	0.4	i	1.9
29	CCN(CC)C(=O)c1cccc(-c2csc(C(C)(NC(C)=O)c3ccccc3)n2)c1 (configuration not stated)	-1.1	i	0.7
30	CC(C)c1ccc(CC(=O)N2CCC2(C)C(=O)NS(=O)(=O)c2ccc(Cl)s2)cc1 (configuration not stated)	-1.8	i	1.0
31	O=C(N[C@H]1CC[C@@H](CCn2cc(C3(O)CCCC3)nn2)O[C@@H]1CO)C1CC1	-2.4	i	-1.5
32	COc1ccc(C(C)(O)c2nc(/C=C/c3ccccc3)cs2)cc1 (configuration not stated)	9.4	i	-10
33	O=C(NC1CCCC1)C(C1CC1)n1c(C2CCCC2)nc2ccccc21 (configuration not stated)	-6.7	i	-3.0
34	C[C@@H]1CN([C@H](C)CO)C(=O)c2cc(-c3cccnc3)cnc2O[C@@H]1CN(C)S(C)(=O)=O	-4.2	i	2.2
35	COc1ccc(C(O)c2ncc(-c3ccccc3)[nH]2)cc1 (configuration not stated)	1.5	i	4.6
36	CO[C@H]1CN(C)C(=O)c2ccc(NC(C)=O)cc2OC[C@H](C)N(Cc2cc(F)ccc2F)C[C@@H]1C	2.9	i	3.3

cpd	Ecoli rRNA inh OD600	Ecoli rRNA inh
25	-13	-4
26	1	2
27	5	3
28	-10	-9
29	-1	2
30	5	3
31	1	-1
32	-75	-51
33	10	0
34	1	1
35	23	13
36	-7	-2

# Full records from above. Values in the order: MLL AF4-AF9 inh	FGF22 binding	Ecoli rRNA inh RFP	Ecoli rRNA inh OD600	Ecoli rRNA inh
# `CC(C)c1ccc(CC(=O)N2CCC2(C)C(=O)NS(=O)(=O)c2ccc(Cl)s2)cc1` (configuration not stated) reads -1.8	i	1.0	5	3
# `O=C(N[C@H]1CC[C@@H](CCn2cc(C3(O)CCCC3)nn2)O[C@@H]1CO)C1CC1` reads -2.4	i	-1.5	1	-1

# Other structures
cpd	molecule	MLL AF4-AF9 inh	FGF22 binding	Ecoli rRNA inh RFP
37	CCC(=O)N(C)C[C@H]1Oc2cc(C#CCC(C)C)ccc2S(=O)(=O)N([C@H](C)CO)C[C@H]1C	-1.1	i	9.2
38	COCC#Cc1ccc2c(c1)O[C@H](CN(C)C(=O)Nc1ccc(OC)cc1)[C@H](C)CN([C@H](C)CO)S2(=O)=O	2.8	i	-0.1
39	CO[C@H]1CN(C)C(=O)c2cc(NC(=O)c3ccc4c(c3)OCO4)ccc2OC[C@@H](C)N(CCC(F)(F)F)C[C@@H]1C	0.5	i	0.7
40	C[C@H](CO)N1C[C@H](C)[C@@H](CN(C)C(=O)c2ccccc2)OCCCC[C@H](C)Oc2ccc(NC(=O)Nc3cccc4ccccc34)cc2C1=O	-2.8	i	1.7
41	CC(=NN1CC(=O)NC1=O)c1ccc([N+](=O)[O-])o1	-1.1	i	-16*
42	COc1ccc(S(=O)(=O)Nc2cccc3c2O[C@@H](CN(C)S(=O)(=O)c2c(C)noc2C)[C@@H](C)CN([C@H](C)CO)C3=O)cc1	-3.4	i	0.5
43	O=C(C[C@H]1CC[C@H]2NC[C@H](O)COC[C@@H]2O1)NCc1ccc(Oc2ccccc2)cc1	1.8	i	-0.3
44	C[C@H](CO)N1C[C@H](C)[C@@H](CN(C)C(=O)C2CCCCC2)OCCCC[C@H](C)Oc2ccc(NC(=O)NC3CCCCC3)cc2C1=O	-10.0	i	-1.6
45	C[C@H]1CN([C@@H](C)CO)S(=O)(=O)c2ccc(C#CC3CC3)cc2O[C@H]1CN(C)Cc1ccncc1	7.3	i	6.4
46	COc1cccc(-c2ccc3c(c2)O[C@@H](CN(C)C(=O)C2CCCCC2)[C@@H](C)CN([C@@H](C)CO)S3(=O)=O)c1	2.5	i	5.8
47	C[C@@H]1CN([C@@H](C)CO)C(=O)c2cc(C3=CCCCC3)cnc2O[C@@H]1CN(C)C(=O)c1cccc(F)c1	-8.1	i	0.5
48	C[C@H]1CN([C@@H](C)CO)C(=O)Cc2cc(NC(=O)Nc3ccc4c(c3)OCO4)ccc2O[C@@H]1CN(C)S(=O)(=O)c1ccc(F)cc1	0.0	i	-0.9

cpd	Ecoli rRNA inh OD600	Ecoli rRNA inh
37	-9	-4
38	-5	-5
39	-16	-7
40	-6	-1
41	-29*	-38*
42	-2	-3
43	1	6
44	0	-1
45	-18	-9
46	-12	-4
47	11	2
48	0	-1

# Taken from above:
# In MLL AF4-AF9 inh, no. 48 reads 0.0
# In Ecoli rRNA inh RFP, no. 38 reads -0.1

# Additional entries follow:
cpd	molecule	MLL AF4-AF9 inh	FGF22 binding	Ecoli rRNA inh RFP
49	C[C@@H]1CN([C@@H](C)CO)C(=O)c2cc(-c3cncnc3)cnc2O[C@H]1CN(C)C(=O)Cc1cccnc1	-8.3	i	-0.8
50	O=C(C[C@H]1CC[C@H]2[C@@H](COC[C@@H](O)CN2C(=O)c2ccccc2)O1)N1CCOCC1	-3.6	i	-2.0
51	C/C=C/c1ccc([C@@H]2[C@@H](CO)N(C(=O)CC3CC3)C23CN(S(C)(=O)=O)C3)cc1	2.7	i	2.6
52	COc1ccc(S(=O)(=O)N(C)C[C@@H]2OCCCC[C@@H](C)Oc3ccc(NS(C)(=O)=O)cc3C(=O)N([C@@H](C)CO)C[C@H]2C)cc1	3.9	i	-2.8
53	O=C(C[C@H]1CC[C@H]2NC[C@H](O)COC[C@@H]2O1)NCCc1ccccc1	-0.6	i	-1.3
54	FC(F)(F)c1ccccc1Cc1c(-c2ccccc2)nc2ccc(Cl)cn12	-18	i	6.3
55	C[C@@H]1CCCCO[C@@H](CN(C)S(=O)(=O)c2ccccc2)[C@H](C)CN([C@@H](C)CO)C(=O)c2cc(NS(=O)(=O)c3ccc(F)cc3)ccc2O1	-11	i	0.6
56	Cc1noc(C)c1S(=O)(=O)Nc1cccc2c1O[C@H](CN(C)S(=O)(=O)c1cccs1)[C@H](C)CN([C@@H](C)CO)C2=O	0.0	i	1.7
57	N#Cc1ccc(C(C(=O)NC2CCCCC2)n2c(=O)c(-c3ccccc3)nc3ccccc32)cc1 (configuration not stated)	7.9	i	0.1
58	Cc1ccc(S(=O)(=O)N(C)C[C@H]2Oc3c(NC(=O)C4CC4)cccc3C(=O)N([C@@H](C)CO)C[C@@H]2C)cc1	-1.8	i	-0.9
59	NC(=NCc1ccccc1)NN=Cc1ccnc2ccccc12	27*	i	-4.6
60	CC(=O)N[C@H]1C=C[C@@H](CC(=O)NCc2ccc(Cl)cc2)O[C@@H]1CO	-1.1	i	-2.7

cpd	Ecoli rRNA inh OD600	Ecoli rRNA inh
49	23	2
50	5	-1
51	8	2
52	-4	-2
53	3	1
54	0	-8
55	-7	-4
56	-4	0
57	10	9
58	1	-1
59	-14	3
60	0	1

# (further entries)
cpd	molecule	MLL AF4-AF9 inh	FGF22 binding	Ecoli rRNA inh RFP
61	CCCNC(=O)N1C[C@H]2[C@@H](c3ccccc31)[C@H](CO)N2C(=O)NCCC	1.2	i	-0.2
62	COc1ccccc1-c1noc2c1C(=O)NCC2	0.6	i	-0.6
63	C[C@H](CO)N1C[C@H](C)[C@H](CN(C)Cc2ccccc2)Oc2c(NC(=O)C3CCOCC3)cccc2C1=O	-0.3	i	0.5
64	O=C(C[C@H]1C=C[C@H](NS(=O)(=O)c2ccc(F)cc2)[C@H](CO)O1)NCCN1CCCCC1	-0.4	i	-3.6
65	Cc1ccc(-c2cnc3c(c2)C(=O)N([C@H](C)CO)C[C@@H](C)[C@@H](CN(C)C(=O)Cc2cccnc2)O3)cc1	-7.6	i	-1.8
66	O=C(Nc1nccs1)[C@@H]1[C@@H](CO)[C@@H]2Cn3c(cccc3=O)[C@@H]2N1C(=O)C1CCC1	-0.6	i	2.9

cpd	Ecoli rRNA inh OD600	Ecoli rRNA inh
61	2	6
62	-3	3
63	15	5
64	1	2
65	0	-1
66	7	1

# Screening results deposited in PubChem BioAssay by Broad Institute.
